# Compound activity from PubChem.
# Bst PK mod: alters activity of Bacillus stearothermophilus pyruvate kinase; 51,000 tested, 1.2% active; partly purified Bacillus stearothermophilus pyruvate kinase, luminescence ATP production; ribose 5-phosphate activator present at AC10; Potency, µM; in the data active means potency below about 11 µM; inconclusive means mostly about 12 µM to 25 µM; inactive means weaker than that;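 the screen sought inhibitors and activators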;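 also: potency is read from the fitted curve at half-maximal effect; scaled between full activation by ribose 5 phosphate and full inhibition by luteolin; about four in five hits inhibit and the cells do not say which; series up to 57 µM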
# YjeE inh: displaces an ADP probe from E. coli YjeE (TsaE). P0AF67. purified YjeE, fluorescence polarisation of a bound ADP probe. Potency, µM. 71,000 tested, 0.05% active. AID 605; active = well fitted falling curve; inconclusive = weaker or top-dose-only fall, or a rising curve; inactive = flat or poorly fitted curve;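 also: top concentration of the series not given in the record; excess ADP was the control for the full effect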
#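 Fluorescence polarization of a BODIPY Texas Red–ADP probe (2 uM) bound to purified YjeE (10 uM) was read after 15 min room-temperature incubation with compounds. Loss of polarization marks inhibitors; ADP serves as titrated control.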
# Numbers without * were called inactive; i = inactive; ? = inconclusive; · = not tested or not shown.
compound | Bst PK mod | YjeE inh
CCCCCOC(=O)NCCOC(=O)Nc1ccc(C(=O)OCC)cc1 | >57 | i
CCOC(=O)c1c(C)n(C)c2ccc(O)c(CN3CCCCC3)c12 | >25.6 | ·
CC(C)(C)c1ccc(-c2nnc(SCC(=O)O)n2N)cc1 | · | i
CC(C)Oc1ccc(C(CC(=O)O)NC(=O)CSc2ncn[nH]2)cc1 (stereo not given) | >57 | i
O=C(CCn1c(=O)sc2ccccc21)NCCCn1ccnc1 | >57 | i
CCC(C)(C)C(=O)O[C@@H]1C[C@@H](C)C=C2C=C[C@H](C)[C@H](CC[C@@H]3C[C@@H](O)CC(=O)O3)[C@H]21 | · | i
Clc1ccc(CSC2=NCCCN2)cc1Cl | >57 | i
Cc1c(C(=O)OCC(=O)N2c3ccccc3CC2C)oc2ccccc12 (stereo not given) | >57 | i
Cc1cc(=O)oc(C)c1C(=O)NCCN1CCOCC1 | >25.6 | ·
COc1ccccc1NC(=O)Cn1c(CN2CCCCC2)nc2ccccc2c1=O | >57 | i
COc1ccccc1NC(=O)N1CCCC1C(=O)NCc1ccc(F)cc1 (stereo not given) | >57 | i
COc1ccc(-c2cc(C(F)(F)F)nc(N3CCCCCC3)n2)cc1 | >57 | i
CCN(CC)C(=O)c1cn(CC)c(=O)c2cc(OC)c(OC)cc12 | >57 | i
Cc1ccc(N2CC(C(=O)OCc3ccccc3F)CC2=O)cc1 (stereo not given) | >57 | i
COCCn1c(=O)c(CCc2ccccc2)nc2cnc(Oc3ccc(OC)cc3)nc21 | · | i
O=C(Nc1cccnc1)c1ccccc1F | · | i
c1ccc(-c2nnc(SCc3cn4ccsc4n3)o2)cc1 | >57 | i
Cn1c(=O)c2c(nc(CN3CCc4ccccc4C3)n2Cc2cccc(Cl)c2)n(C)c1=O | · | i
O=c1c2cnn(-c3ccccc3Cl)c2ncn1Cc1cccnc1 | >57 | i
O=C(CC1(O)CCCCC1)OC1CCCC1 | · | i
O=C(CNS(=O)(=O)c1ccccc1)NCc1ccccn1 | >57 | i
O=C(CC1Sc2ccccc2NC1=O)Nc1cccc(-c2nnc3n2CCCCC3)c1 (stereo not given) | >57 | i
C=CCN1C(=O)C2C(C(=O)NC)C3C=CC2(O3)C1C(=O)NCc1ccc(OC)cc1 (stereo not given) | >57 | i
CCOC1=NC(C(=O)O)c2ccccc2/C(=C(/C)Cl)N1 (stereo not given) | >57 | i
CCc1ccc2c(CN3CCN(S(=O)(=O)c4ccc5c(c4)OCCO5)CC3)cc(=O)oc2c1 | >57 | i
Cc1ccc(NC2CC(=O)N(c3ccc(N4CCCCC4)cc3)C2=O)cc1 (stereo not given) | >57 | i
Cc1cc(O)ccc1-c1cnc2ccccc2n1 | >25.6 | ·
COc1ccc(CCNc2nnc(Sc3nnnn3-c3ccccc3)s2)cc1OC | >57 | i
O=C(Nc1cccc(-n2cnnn2)c1)c1ccco1 | >57 | i
CCc1ccccc1S(=O)(=O)Cc1ccc(C(=O)N2CCN(c3ccccn3)CC2)o1 | · | i
O=C(CN1C(=O)c2ccccc2S1(=O)=O)NCCC1=CCCCC1 | >57 | i
Fc1cccc(CSc2nc3ccncc3[nH]2)c1 | · | i
Cc1ccc(S(=O)(=O)c2cc3c(=O)n4ccccc4nc3n(Cc3ccco3)c2=N)cc1 | >57 | i
Cc1ccc(C)c(OCC(O)CN2CCCCC2C)c1 (stereo not given) | >57 | i
CCCCn1c(SCc2ncc(-c3ccccc3)o2)nc2cc(S(N)(=O)=O)ccc21 | >57 | i
CCCOc1ccc(C(CC(=O)O)NC(=O)c2ccc3c(c2)OCO3)cc1 (stereo not given) | >57 | i
CCOC(=O)/C=C(\C)Nc1cc(C)nn1-c1ccccc1 | · | i
CCNc1ncc2nc(-c3ccccc3)c(=O)n(Cc3cccc(OC)c3)c2n1 | · | i
COc1cccc(-c2cc(C(F)(F)F)nc(N3CCCCC3)n2)c1 | >57 | i
COCCNC(=O)c1cc(-c2cccs2)on1 | · | i
CCOC(=O)N1CCN(C(=O)c2cc(-c3ccc(OCC)cc3)nc3ccccc23)CC1 | 1.06* | i
CC(=O)c1c(C)n(CC(=O)NCc2ccc3c(c2)OCO3)c2ccccc12 | >57 | i
CC(C)Cn1c(N)c(C(=O)COC(=O)c2ccc3c(c2)OCCO3)c(=O)n(C)c1=O | >57 | i
CC(=O)Nc1ccc(S(=O)(=O)N2CCC(c3nc4ccc(C)cc4[nH]3)CC2)cc1 | >57 | i
COc1cccc(NC(=O)Cc2ccccc2)c1 | · | i
O=C1C2C3C=CC(CO)(O3)C2C(=O)N1c1ccccc1-c1ccccc1 (stereo not given) | · | ?
S=C(c1ccc2c(c1)OCO2)N1CCCC1 | >57 | i
O=C(NC(NC1CCS(=O)(=O)C1)C(=O)c1ccccc1)c1ccc(Cl)cc1 (stereo not given) | >57 | i
N#CCCn1cc(/C=N/O)c(-c2ccc(-c3ccccc3)cc2)n1 | · | i
CCn1c(SCC(=O)Nc2ccc(Cl)cc2)nnc1C1CC1 | · | i
CN(C(=O)CN1C(=O)c2ccccc2S1(=O)=O)c1ccccc1C(=O)O | >57 | i
COc1cccc(C2NC(=O)c3ccccc3O2)c1OC (stereo not given) | >11.4 | i
S=C(c1ccc(-c2ccc(Cl)c(Cl)c2)o1)N1CCOCC1 | · | i
CCn1c(SCC(=O)Nc2nc(-c3ccccc3)cs2)nnc1-c1ccccc1O | >57 | i
COCCn1nnnc1C(C(C)C)N(Cc1cccnc1)Cc1ccccc1Cl (stereo not given) | >57 | i
COc1ccc2c(Cl)c(C(=O)NCCCn3ccnc3)sc2c1 | · | i
CCN(C(=O)c1ccco1)c1nc(CC(=O)Nc2ccc(Cl)cc2)cs1 | >57 | i
CCn1c(Cc2ccccc2)nnc1SCC(=O)Nc1ccc(S(N)(=O)=O)cc1 | >57 | i
CCn1c2ccccc2c2cc(N)ccc21 | · | i
COc1ccc(CCNC(=O)CCN2C(=O)C(C)Oc3ccc(C)cc32)cc1OC (stereo not given) | >57 | i

# Complete entries from above. Values in the order: Bst PK mod | YjeE inh
# N#CCCn1cc(/C=N/O)c(-c2ccc(-c3ccccc3)cc2)n1 in the list: · | i
# CCn1c(SCC(=O)Nc2nc(-c3ccccc3)cs2)nnc1-c1ccccc1O in the list: >57 | i
# S=C(c1ccc(-c2ccc(Cl)c(Cl)c2)o1)N1CCOCC1 in the list: · | i
# O=C1C2C3C=CC(CO)(O3)C2C(=O)N1c1ccccc1-c1ccccc1 (stereo not given) in the list: · | ?

# (further entries)
compound | Bst PK mod | YjeE inh
CCCS(=O)(=O)N1CCC(C(=O)NCCCN(C)Cc2ccccc2)CC1 | >57 | i
COC(=O)C1C(=O)C2=C(CC1C)NC(C)=C(C(=O)OC(C)C)C2c1ccc(OC)c(O)c1 (stereo not given) | >57 | i
Cc1nc2cnc(N3CCN(C)CC3)nc2n(-c2ccccc2)c1=O | · | i
CCN(CC)c1nc(SCC(=O)O)nc(N(CC)CC)n1 | >57 | i
COc1cccc(NC(=O)c2cccs2)c1 | · | i
CCCC(C(=O)NC1CCCC1)N(Cc1cccs1)C(=O)c1snc(C(N)=O)c1N (stereo not given) | >57 | i
COc1ccc(Cn2c(=O)sc3ccccc32)cc1 | · | i
COc1ccccc1C(=O)n1nc(-c2ccccc2)nc1NCc1ccco1 | >57 | i
COc1ccc(NC(=O)Nc2cc(C)ccc2OC(F)F)c(OC)c1 | >57 | i
CN(C)c1ncc2nc(-c3cccc(C#N)c3)c(=O)n(C)c2n1 | · | i
CCOC(=O)N1CCN(C(=O)c2cccc(-n3c(=S)[nH]c4cc(Cl)ccc4c3=O)c2)CC1 | >57 | i
CCOc1ccc2nc(SCC(=O)N3CCCCCC3)c(C#N)cc2c1 | · | i
COc1ccc(C2C(C(=O)N3CCN(c4ccccn4)CC3)CC(=O)N2c2ccc(OC)cc2)cc1 (stereo not given) | >57 | i
O=C(c1ccccc1C(=O)N1CCN(c2ccccc2F)CC1)N1CCN(c2ccccc2F)CC1 | · | i
Cc1ccc(S(=O)(=O)c2nc(NCCCn3ccnc3)sc2Cl)cc1 | >57 | i
COC(=O)C1(Cc2ccccc2)C=C2C(=C(c3ccccc3)C(=O)C2C)CN1 (stereo not given) | · | i
CCOC(=O)C1CCN(S(=O)(=O)c2cccc(-c3cn4cccnc4n3)c2)CC1 | >57 | i
CCOC(=O)C(Sc1nnc2c3ccccc3n(CC)c2n1)C(=O)OCC | >57 | i
COc1ccccc1-c1cc(C(=O)NCc2ccco2)no1 | >57 | i
COC(=O)Cc1cc(=O)n2[nH]c(C)nc2n1 | >57 | i
CCCc1nnc(NC(=O)CCC(=O)O)s1 | · | i
CC1(C)CC(=O)C(C=NCCCN2CCCC2=O)=C(O)C1 | · | i
COc1ccc(NC(=O)CCC2COc3ccccc3O2)c(OC)c1 (stereo not given) | >57 | i
O=C(CN1CCN(CC(=O)Nc2ccccc2Cl)CC1)Nc1ccc2c(c1)OCCO2 | >57 | i
Cc1cccc(NC(=O)C2CCN(S(=O)(=O)c3cccc4nsnc34)CC2)n1 | ? | i
O=C(c1cccc(F)c1)N1CCC[C@@]2(CCN(c3cccc(-c4ccccc4)c3)C2)C1 | · | i
Clc1ccccc1-c1nccc(NCc2cccs2)n1 | · | i
Cc1cc(C)c(NC(=O)CN2C(=O)NC3(CCCCC3)C2=O)c(C)c1 | >57 | i
O=C(COc1ccc(Cl)cc1Cl)Nc1nc2n(n1)C(c1ccccc1)CC(=O)N2 (stereo not given) | >57 | ?
COc1ccc(-n2c(=O)c3c4c(sc3n3c(C)nnc23)CCCC4)cc1 | · | i
COc1ccc(C2N3CC4(C)CN2CC(C)(C3)C4O)cc1OC (stereo not given) | >25.6 | ·
CC(=O)c1c(C)n([O-])c2cc(C)ccc2[n+]1=O | >57 | i
CCOCCn1c(CN2CCC(C)CC2)nc2c1c(=O)n(C)c(=O)n2C | · | i
COCCCNC(=O)c1ccc(C(=O)NCCCOC)cc1 | · | i
CCOc1ccc(-n2c(SCC(=O)NC(C)CC)nc3n[nH]c(C)c3c2=N)cc1 (stereo not given) | >57 | i
CSC1=C(C#N)C(c2ccc(C)s2)CC(=O)N1 (stereo not given) | >25.6 | ·
C#CCOC(=O)CCC(=O)Nc1cc(OC)nc(OC)n1 | >57 | i
O=C(c1ccco1)N1CCN(C2=NS(=O)(=O)c3ccccc32)CC1 | · | i
C[C@@H](N)[C@@H](C)Cc1ccccc1 | · | i
COC(=O)c1ccc(C(/C=C/[C@@H](C)C(=O)NCc2ccccc2)NC(=O)OCc2ccccc2)cc1 (stereo not given in full) | · | i
COC(=O)c1ccccc1NC(=O)Nc1cnccn1 | >57 | i
O=c1cc(CO)oc(CN2CCC(Cc3ccccc3)CC2)c1O | >57 | i
O=c1ccn([C@@H]2O[C@@H](COP(=O)(O)OP(=O)(O)O)[C@H](O)[C@@H]2O)c(=O)[nH]1 | · | i
Cc1nn(CC(=O)Nc2ccccn2)c(=O)c2ccccc12 | >57 | i
CCN(CC)S(=O)(=O)c1cccc(C(=O)N2CCCCC2)c1 | >57 | i

# Shown with values under each structure: part of the list above.
# Results follow in this order: Bst PK mod	YjeE inh
> COc1ccc(C2N3CC4(C)CN2CC(C)(C3)C4O)cc1OC (stereo not given)
→ >25.6	·
> CC(=O)c1c(C)n([O-])c2cc(C)ccc2[n+]1=O
→ >57	i

# Later entries.
compound | Bst PK mod | YjeE inh
COCCn1nnnc1CN(Cc1cccnc1)Cc1cc2cc(OC)ccc2[nH]c1=O | >57 | i
CCCC(=O)Nc1nnc(COC)s1 | >57 | i
COc1ccccc1-c1cc(C2CC2)nc(N)c1C#N | · | i
COC(=O)c1nc2n(n1)C(c1cccc(Cl)c1)C1=C(CC(C)(C)CC1=O)N2 (stereo not given) | · | i
CN(CCc1ccccn1)S(=O)(=O)c1ccccc1F | >57 | i
CN1CCN(CCN2CCn3c2nc2ccccc23)CC1 | >57 | i
CC(C)(C)n1nnnc1C(c1cccc(C#N)c1)N1CCC(Cc2ccccc2)CC1 (stereo not given) | >57 | i
O=C1C(C=NCCCN2CCCC2=O)=C(O)c2ccccc21 | · | i
CC(C)C(=O)Nc1cccc(C(=O)NCc2ccc(S(N)(=O)=O)cc2)c1 | >57 | i
NC(=O)C1CCN(C(=O)Nc2ccccc2)CC1 | >57 | i
Cc1ccc(S(=O)(=O)C2(C(=O)NCc3ccc4c(c3)OCO4)CC2)cc1 | · | i
COc1cc(OC)cc(C(=O)Nc2cccc(NC(C)=O)c2)c1 | · | i
c1ccc(Nc2nc(-c3ccncc3)cs2)nc1 | · | i
COC(=O)CCC(=O)N1CCc2cc(S(=O)(=O)N3CCc4ccccc43)ccc21 | >57 | i
CCOC(=O)c1cccc(NC(=O)C2CCCN(S(=O)(=O)c3cnc[nH]3)C2)c1 (stereo not given) | · | i
COc1ccc(NC(=O)C2CCCN2S(=O)(=O)c2ccc3c(c2)CCC(=O)N3)cc1 (stereo not given) | · | i
CC(=O)NC(=O)NC1CSCC1OC(C)=O (stereo not given) | >57 | i
CC(C)(C)NC(=O)NC(=O)COc1ccccn1 | >57 | i
COc1ccccc1CNC(=O)CC(NS(=O)(=O)c1ccc(C)cc1)c1ccco1 (stereo not given) | ? | i

# The list is partial; count on the stated rates, not on these rows.
